Source: PubChem (National Center for Advancing Translational Sciences (NCATS))
ClpP mod = qHTS Assay for Activators of ClpP; 340,000 compounds, 1.9% hits; purified B. subtilis ClpP, FRET peptide cleavage, 20 min; Potency, µM (series often up to 57.5 µM), inactives show top-dose activity change, negative = active; AID 651965, 2013; ATP-dependent Clp protease proteolytic subunit (Bacillus subtilis (strain 168)), P80244; active = well fitted falling curve with a large enough effect; inconclusive = small, poorly fitted or top-dose-only effect; inactive = no such curve, though single readings can be large or run the other way; further: potency means the concentration at half of the fitted maximal effect; the source files actives as falling curves though it sought activators and does not explain the sign; nearly all actives have a fitted effect of over 65% in size; many hits overshoot -100%
Target sequence (P80244 whole entry, looked up): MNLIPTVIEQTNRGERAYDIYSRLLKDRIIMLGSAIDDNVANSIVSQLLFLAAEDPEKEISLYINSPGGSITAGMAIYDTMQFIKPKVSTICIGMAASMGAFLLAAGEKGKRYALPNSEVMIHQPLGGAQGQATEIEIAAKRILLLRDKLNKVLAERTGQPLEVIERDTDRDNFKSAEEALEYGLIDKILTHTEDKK
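Buffer: 100 mM Tris/HCl pH8, 100 mM KCl, 0.05% low protease BSA, 2.5% glycerol, 0.01% Tween-20. ClpP 10 microg/mL final; 20 min RT; delta FRET normalized to ADEP and DMSO controls.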
Menin-MLL FL inh = menin-MLL binding inhibition, fluorescein peptide; Fluorescence polarization, fluorescein-MLL peptide displacement from menin; FP activity change, % at 61.4 µM; 290,000 tested, under 10 active; inconclusive = falling polarisation curve, or a change in total fluorescence; inactive = total fluorescence flat and polarisation flat or rising; no compound was filed as active; the % refers to the polarisation; negative = inhibition;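 further: % of control where 0% means no effect; inhibitors lower the polarisation; unlabelled MLL peptide was the positive control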
Sfp PPTase inh = blocks B. subtilis Sfp PPTase activity. Q9F4F7. Biochemical Sfp PPTase activity, qHTS. Potency, µM, for inactives: max response, negative = inhibition, most hits filed as inhibitors. 310,000 compounds, 3.5% hits. AID 1490; active means well fitted inhibition curve with a large enough effect; inconclusive means small, poorly fitted or top-dose-only effect, or another doubt; inactive means no such curve, though single readings can be large or run the other way;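 further: the enzyme is Sfp with the accession as filed and its product quenches rhodamine fluorescence; potency means the concentration at half of the fitted maximal effect; 0% = enzyme reaction without inhibitor and -100% = no enzyme wells; top concentration of the series not given in the record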
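Fluorescence-quenching assay with 15 nM Sfp, 5 uM rhodamine-CoA and 12.5 uM BHQ-2-labelled ybbR peptide in pH 7.6 Hepes/MgCl2 buffer. Enzyme was pre-incubated with compound for 15 min at room temperature. Rate was taken from the 30-min fluorescence change (525/598 nm).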
gsp antagonist = antagonizes gsp, the McCune-Albright syndrome mutation | gsp-mutant cells, cAMP HTRF, 30 min; control for the full effect not named in the record | Potency, µM (titrated, usually from 76.9 µM), for inactives: at the highest dose activity change, negative = inhibition, usual class: inhibitors | 340,000 compounds, 0.4% hits | AID 624288; active = falling curve of any shape with a large fitted effect; inconclusive = falling curve, mostly with a smaller effect; inactive = flat or rising curve; cell line not stated here;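 further: intracellular cAMP measured with PDE inhibitor Ro 20-1724 present during compound exposure; potency means the concentration at half of the fitted maximal effect; on the % scale 0 is the no-effect control and ±100 the full control effect; nearly all actives have a fitted effect of over 65% in size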
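HTRF cAMP read-out (cAMP-d2 plus anti-cAMP antibody-K in lysis buffer, 30 min RT). Before lysis, cells are exposed to compounds with […] for 30 min at 37C in DPBS containing Ca/Mg, BSA and Tween 20.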
PINK1 expr mod = changes PINK1 expression. PINK1 immunofluorescence, high-content cytometry, 24 h. Potency, µM (highest dose often 76.6 µM), for inactives: at the top dose activation (PINK1 increase), actives largely listed as activators. 410,000 compounds, 0.2% hits; active = well fitted activation curve with a large enough effect; inconclusive = small, poorly fitted or top-dose-only effect; inactive = flat fitted curve, though single readings scatter; cell line not stated here;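 further: potency means the concentration at half of the fitted maximal effect; % of control where 0% means no effect; nearly all actives have a fitted effect of over 65% in size; a mitochondrial uncoupler was the plate control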
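Stable cell line, 250 cells/well, 12 h attachment; compounds pinned at 5 concentrations, 24 h; CCCP control. Fixed with nuclear dye, primary antibodies 12 h at 10 degrees C, secondary plus cell stain; laser-scanning cytometer read.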
D2 ag = agonists of human D2 dopamine receptor (beta-arrestin). P14416. DiscoveRx PathHunter D2 beta-arrestin, luminescence, 90 min; 100% = 57 uM dopamine signal. activation, % (no concentration beside the values). 360,000 compounds, 0.084% hits. AID 624465; in the data active = activation above about 40%; inconclusive = about 15% to 40%; inactive = below about 15%; further: compound concentration not given in the record; the text of the record calls up to 30% inactive
Target sequence (P14416 whole entry, looked up): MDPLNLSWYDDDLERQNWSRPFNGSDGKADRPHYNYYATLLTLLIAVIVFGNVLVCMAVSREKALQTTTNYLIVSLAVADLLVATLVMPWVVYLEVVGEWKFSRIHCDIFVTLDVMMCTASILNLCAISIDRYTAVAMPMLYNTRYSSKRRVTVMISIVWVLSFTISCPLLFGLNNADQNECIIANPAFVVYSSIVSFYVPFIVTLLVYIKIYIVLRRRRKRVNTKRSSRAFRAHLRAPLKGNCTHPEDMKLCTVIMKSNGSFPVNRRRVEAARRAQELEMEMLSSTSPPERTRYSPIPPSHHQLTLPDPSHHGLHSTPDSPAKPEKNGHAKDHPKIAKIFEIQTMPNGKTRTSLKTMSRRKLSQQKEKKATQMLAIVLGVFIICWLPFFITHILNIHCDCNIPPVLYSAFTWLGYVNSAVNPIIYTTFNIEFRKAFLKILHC
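DiscoveRx PathHunter D2 beta-arrestin cells (2,100/well) attached overnight, then compound-stimulated 90 min at 37 C in HBSS/10 mM HEPES/0.1% Tween-20 buffer; beta-galactosidase complementation read by luminescence after 1 h at ambient temperature. Dopamine 57 uM final (EC100) as control.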
gsp ag = agonists of gsp mutant (McCune-Albright syndrome); gsp mutant cells, cAMP HTRF, 30 min; control for the full effect not named in the record; Potency, µM (highest dose often 76.9 µM), for inactives: top-dose activation (cAMP increase), hits mostly activators; 340,000 compounds, 0.13% hits; AID 624287; active = well fitted activation curve with a large enough effect; inconclusive = small, poorly fitted or top-dose-only effect, or another doubt; inactive = no such curve, though single readings can be large or run the other way; cell line not stated here;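 further: phosphodiesterase inhibitor Ro 20-1724 added with compounds to block cAMP breakdown; potency means the concentration at half of the fitted maximal effect; nearly all actives have a fitted effect of over 60% in size; about a fifth of the inactives were tested at one dose only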
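Cells stably selected in G418 were plated at 2000/well, grown 16-24 hr, then given compounds in DMSO with the PDE inhibitor […] (300 uM solution added) for 30 min at 37C; cAMP was read by HTRF.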
* hit, by the source's call; ? = inconclusive; . = no result given; & = joins results of further samples; [ ] = remark or other dose.

SMILES	ClpP mod	Menin-MLL FL inh	Sfp PPTase inh	gsp antagonist	PINK1 expr mod	D2 ag	gsp ag
CCOCc1nnc(NS(C)(=O)=O)s1	-1.6%	-3.4	8.6%	6.4%	14.9%[38.3 µM]	-0.9	-38.4%[inhibitor]
COc1ccc(CNC(=O)Cn2c(=O)oc3cc(S(=O)(=O)N4CCCC4)ccc32)cc1	11.3%	.	3.5%	-13.8%	-0.3%&1.1%	4.5	4.1%
O=C(Nc1ccccc1N1CCCC1)c1cccnc1	0.7%	1.0	-3.1%	-3.1%	-2.0%	0.4	-9.0%
CCOC(=O)c1[nH]c(C)c(C(=O)OCC(=O)N2CCc3ccccc32)c1C	0.0%	-0.3	6.2%	-2.4%	?	-2.2	-4.9%
Cc1c(C(=O)O)oc2ccc(S(=O)(=O)N3CCCCC3C(=O)O)cc12 (stereo not drawn)	-1.6%	-9.3	7.3%	4.4%	0.5%	-3.5	-5.3%
O=C(c1cnc2sccn2c1=O)N1CCc2ccccc2C1	?	-1.5	?	8.2%	-2.4%[38.3 µM]	-2.8	30.4%
COc1ccc(C(=S)N2CCOCC2)cc1OC(=O)c1ccccc1Cl	.	-1.8	56.2µM*	-4.4%	-1.2%	-3.2	31.1%
Cn1nc(C(C)(C)C)cc1C(=O)Nc1nc2c(s1)C(=O)CC(C)(C)C2	-3.0%	3.5	1.4%	2.7%	?	1.3	10.3%
CC1(C(=O)NS(=O)(=O)c2cccc(F)c2)CCN1C(=O)CCc1ccccc1 (stereo not drawn)	0.5%	.	.	.	4.2%	10.7	.
Cc1ccc(-c2nc3ccc(Br)cn3c2CC(C)(C)C)cc1	-2.2%	.	.	.	?	-1.5	8.7%
CCO[C@@H]1OC(C(=O)O)=C[C@H](C2CCCCC2)[C@H]1CCCO	0.2%	5.3	8.1%	-1.1%	-1.1%	-0.4	-22.0%
Cc1cc(Cl)c2cc3ccccc3cc2n1	.	5.7	1.2%	-1.6%	1.3%	-1.0	-0.8%[15.4 µM]
Cc1noc(C)c1COC(=O)c1cccc(S(=O)(=O)N2CCOCC2)c1	1.3%	.	.	7.5%	3.5%	-1.5	-13.0%
CCC(=O)NNc1ncnc2ccccc12	1.0%	2.8	10.5%	0.2%	0.4%	-4.1	3.8%
CCOC(=O)COc1ccc(C2CC(C)=NN2c2ccccc2)cc1 (stereo not drawn)	.	2.8	3.4%	-19.0%	-0.4%	2.0	-1.4%
Cc1ccsc1CNC(=O)c1c(-c2ccccc2)noc1C	.	7.3	4.6%	-5.0%	-0.5%	0.8	2.7%
CCOc1ccccc1C(=O)N1CCC(C(=O)c2ccc(F)cc2)CC1	0.6%	2.1	11.2%	2.7%	-2.9%	-1.5	-17.0%
O=C(O)C1=C(OCc2ccc(F)c(F)c2)C(=O)NCC1	.	0.5	19.9%	-10.8%	0.3%	-3.9	10.9%[15.4 µM]
O=C(Nc1ccc(Cc2ccncc2)cc1)c1ccc(S(=O)(=O)N2CCOCC2)cc1	-1.9%	0.0	0.8%	?	0.3%	-1.4	-2.4%
CC(=O)Nc1c(Cl)c(Cl)c2c(c1Cl)C(=O)c1cc(Cl)ccc1-2	-0.2%	.	.	-12.1%	?	3.6	-14.0%
Cc1ccc(NC(=O)C2CCN(c3ncnc4c3nc3n4CCCCC3)CC2)cc1Cl	-2.4%	-7.9	-11.2%	-21.3%	1.1%	0.4	-10.9%
C=CCCN(Cc1ccccc1)S(=O)(=O)c1ccccc1Br	0.0%	-2.4&2.6	10.6%&-6.3%	-8.9%	6.0%	-3.5	-5.0%
COC(c1ccc(Cl)cc1)(c1ccc(Cl)cc1)C(Oc1nc(C)cc(C)n1)C(=O)O (stereo not drawn)	2.9%	0.0	20.0%	-6.2%	-0.6%	2.4	0.9%
O=C(N/N=C/c1c(Cl)cccc1Cl)C(=O)NC1CC1	.	1.8	-4.4%	-4.7%	0.7%	0.1	10.1%
CC(C)COc1ccc(C(=O)N/C(=C\c2cccc([N+](=O)[O-])c2)C(=O)O)cc1	.	1.1	1.3%	-5.2%	0.2%	0.3	3.3%[15.4 µM]
Nc1ccc(Cl)cc1/C(=N/O)c1ccccc1	2.1%	-3.7	3.0%	5.7%	1.0%	-2.1	-42.9%[inhibitor]
C=CCNC(=S)Nc1ccc2nc(C)c(C)nc2c1	3.1%	-3.2	?	18.5%	1.6%	-4.1	20.4%
COC(=O)c1ccc(NC(=O)C(OC)c2ccccc2)cc1 (stereo not drawn)	.	-1.1	-17.6%	6.6%	-0.6%	-4.0	17.4%[15.4 µM]
O=C(Nc1cccc(Cl)c1)N1CCSc2cc(Cl)ccc21	0.6%	2.3	7.0%	?	3.7%[38.3 µM]	-2.8	?
O=C(NCc1ccc(Cl)cc1)NCC(F)(F)F	3.8%	-0.1	-0.7%	-4.2%	3.0%	0.1	-22.9%
Cc1ccc(S(=O)(=O)NCCC(=O)NNC(=O)C2COc3ccccc3O2)cc1 (stereo not drawn)	-2.8%	.	.	5.6%	-1.5%	0.2	8.1%
O=C(O/N=C/c1cccc([N+](=O)[O-])c1)C1CC1	-2.9%	3.6	18.6%	6.0%	-0.9%	-1.8	?
COc1ccc(/C=C/C(=O)OCC(=O)Nc2ccc(Cl)cn2)cc1	-1.4%	1.6	19.0%	-3.6%	-0.5%	2.5	-11.1%
COc1ccc(N2C(=O)C3NN=C(C(=O)OCc4ccccc4)C3C2=O)cc1 (stereo not drawn)	-0.4%	0.4	12.3%	-4.2%	-1.3%	-2.1	30.0%
Cc1ccc(S(=O)(=O)N2c3ccccc3NC(=O)C2CC(=O)Nc2ccccc2)cc1 (stereo not drawn)	-3.2%	-0.7	9.2%	-2.8%	0.6%	3.1	-8.2%
CCOC(=O)Cc1csc(NC(=O)CSc2nnnn2-c2ccc(C)cc2C)n1	1.3%	-3.1	-19.9%	-23.3%	0.8%	-2.9	-47.1%[inhibitor]
Cc1ccc(C(=O)Nc2cc3c(oc2=O)CCCC3=O)cc1	-1.1%	2.9	5.7%	-6.4%	-1.9%	-2.0	15.3%
O=C(CSc1nnc(-c2ccc(Cl)cc2Cl)n1C1CCCCC1)N1CCCC1	1.4%	1.7	4.9%	-3.9%	-2.7%	-1.6	-25.2%
CCn1c(C)nc2cc(-c3nnc(-c4c(-c5ccccc5)noc4C)o3)ccc21	7.7%	5.5	6.7%	?	9.7%	4.0	2.1%
Cc1onc(-c2ccccc2Cl)c1-c1nc(-c2ccncc2)no1	3.3%	3.1	-24.8%	1.8%	-0.8%	1.8	-0.4%
Cc1c(C(C)NC(=O)c2cc(COc3cccc4cnccc34)on2)cnn1C (stereo not drawn)	3.7%	-2.9	16.1%	-18.1%	2.5%	3.0	-14.8%
Cc1nc2ccccn2c1C(=O)NNC(=O)Nc1ccccc1	-1.7%	.	3.3%	10.4%	-1.0%	-3.9	?
CNc1ccccc1C(C)(C)c1cc(C)[nH]n1	0.1%	1.7	21.0%	-3.6%	-0.3%	-3.3	2.9%
O=C(NCc1cccnc1)c1ccc(Cn2c(=S)[nH]c3ccc(Br)cc3c2=O)cc1	0.8%	1.1	1.8%	8.9%	14.7%	1.8	5.8%[15.4 µM]
Cc1ccc(C)c(NC(=O)CN(C)C(=O)C2CCN(S(=O)(=O)c3ccc4c(c3)OCCO4)CC2)c1	0.4%	.	.	-1.9%	-0.2%	-4.0	?
CC(C)CCNC(=O)C(c1ccc(O)cc1)N(Cc1cccs1)C(=O)C1COc2ccccc2O1 (stereo not drawn)	1.0%	3.2	16.3%	?	-0.5%	-2.1	3.3%
Cc1ccc2nc(N)nnc2c1	0.5%	.	.	.	0.9%	-0.6	3.2%
CCNc1ncc2nc(-c3cc(F)cc(F)c3)c(=O)n(CCOC)c2n1	.	?	13.1%	.	1.5%	.	.
COc1ccc(N2CCN(C(=O)CSc3nnc(Cn4nnc5ccccc54)n3C)CC2)cc1	-0.4%	8.3	1.0%	-3.3%	-3.5%[38.3 µM]	5.6	-53.6%[inhibitor]
Cn1nnnc1SCc1cccc(CSc2nnnn2C)n1	-3.9%	-1.1	10.9%	10.6%	-5.0%[38.3 µM]	0.7	-48.3%
Cc1ccc(C)c(NC(=O)CCN2CCc3ccccc3C2)c1	.	-4.9	6.1%	2.8%	0.0%	-1.4	3.8%
COc1ccccc1Oc1ccc(S(=O)(=O)NCc2ccccn2)cc1	0.1%	-0.6	-0.1%	-21.0%	5.4%[38.3 µM]	1.1	-28.0%
CCOc1cc(C2Nc3ccccc3C(=O)N2c2ccccc2)ccc1O (stereo not drawn)	?	1.1	6.8%	-10.7%	2.8%[38.3 µM]	-0.8	-2.0%
CCOC(=O)CSc1nc(C2CC2)cc(-c2ccc(F)cc2)c1C#N	-24.7%	-0.8	2.5%	-27.0%	13.4%	-2.3	?
COc1ccc(Nc2nnc(SCc3cc([N+](=O)[O-])cc4c3OCOC4)s2)cc1	0.4%	1.6	-7.1%	1.1%	5.9%[38.3 µM]	-2.4	14.2%
Cc1cc(C)cc(NC(=O)N2CCC(c3nc4ccccc4o3)CC2)c1	1.8%	3.1	-3.6%	-13.2%	-1.9%[38.3 µM]	-1.1	-27.4%
Cc1ccc(SCCC(=O)NC(C)(C)C)cc1	-5.3%	-2.6	-10.9%	-7.8%	1.0%	-2.2	15.4%
O=C(NCCN1CCOCC1)c1cccc(S(=O)(=O)Nc2ccc(F)cc2)c1	-1.2%	.	.	0.8%	1.0%	-2.5	?
O=C(NCC(c1cccs1)N1CCOCC1)c1cc([N+](=O)[O-])ccc1Cl (stereo not drawn)	0.6%	2.4	-6.2%	?	-1.8%	-0.1	27.6%
CCOc1ccc(C(=O)N(Cc2ccc(OC)cc2)Cc2cc3cc(OC)ccc3[nH]c2=O)cc1	31.6µM*	3.2	17.2%	1.7%	?	-1.5	15.2%
CCOC(=O)c1cnc2c(C#N)cnn2c1N	.	4.1	2.1%	9.7%	2.2%	7.1	2.2%[15.4 µM]
CCc1nnc(NC(=O)CSc2ccc(-c3cccs3)nn2)s1	.	-0.1	-23.0%	-58.2%	-0.7%	-1.2	18.8%[15.4 µM]
